HIV Env fusion: inhibitors of HIV Env-mediated cell fusion | HeLa-JRFL Env/CEM21 cell fusion, luciferase | inhibition, % at 12.3 µM | 1.1% of 360,000 active | AID 651610;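 active = mean replicate inhibition score of at least 50 and every replicate individually at or above 50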;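 note: 0% = plate neutral controls and 100% = maraviroc near 300 nM; one replicate is shown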
Active calls of the source: *; [ ] = remark or other dose. Only part of the results is shown, so the mix of outcomes need not match the whole.

SMILES	HIV Env fusion
C[C@@H]1CN([C@@H](C)CO)C(=O)c2cccc(N(C)C)c2O[C@@H]1CN(C)C(=O)NC1CCCCC1	3[16.7 µM]
COCC(=O)N1[C@@H]2c3cccc(=O)n3C[C@@H]2[C@@H](CO)[C@@H]1C(=O)NCc1ccccc1	7[16.7 µM]
C[C@@H]1CN([C@@H](C)CO)C(=O)Cc2cc(NS(C)(=O)=O)ccc2O[C@@H]1CN(C)C(=O)Nc1cccc2ccccc12	-3[16.7 µM]
C[C@@H](NC(=O)C[C@H]1C=C[C@H](NC(=O)Nc2ccc3c(c2)OCO3)[C@H](CO)O1)c1ccccc1	2[16.7 µM]
C[C@H]1CN([C@@H](C)CO)C(=O)c2cc(NS(=O)(=O)c3ccccc3)ccc2O[C@H]1CN(C)C(=O)Nc1ccc(F)cc1	-14[16.7 µM]
O=C(C[C@@H]1CC[C@H]2[C@@H](COC[C@@H](O)CN2Cc2ccc(Oc3ccccc3)cc2)O1)N1CCN(c2ccccc2)CC1	59*[16.7 µM]
COc1ccc2c3c([nH]c2c1)[C@H](CO)N(C(=O)Nc1cccc(F)c1)CC31CCN(S(=O)(=O)c2ccccc2)CC1	92*[16.7 µM]
CN(C)CCCNC(=O)[C@@H]1[C@@H](CO)[C@@H]2Cn3c(ccc(C4=CCCC4)c3=O)[C@H]1N2Cc1cocn1	-6[16.7 µM]
C[C@@H]1CN([C@H](C)CO)C(=O)Cc2cc(NS(=O)(=O)c3ccc(F)cc3)ccc2O[C@@H]1CN(C)C(=O)Nc1ccc2c(c1)OCO2	-71[16.7 µM]
COc1ccc2c3c([nH]c2c1)[C@@H](CO)N(C(=O)Nc1ccc(F)cc1)CC31CN(S(=O)(=O)c2ccccc2)C1	-46[16.7 µM]
O=C(C[C@@H]1CC[C@@H]2[C@H](COC[C@@H](O)CN2C(=O)c2ccc3c(c2)OCO3)O1)NCCN1CCCCC1	38[16.7 µM]
CCCc1c(-c2cccc(Br)c2)ncn1CCc1ccccc1OC	0
C[C@@H]1CN([C@@H](C)CO)C(=O)c2cc(NS(=O)(=O)c3cn(C)cn3)ccc2O[C@H]1CN(C)C(=O)Nc1ccc(F)cc1	12[16.7 µM]
CNC[C@H]1OCc2ccccc2-c2ccccc2C(=O)N([C@@H](C)CO)C[C@@H]1C	18[16.7 µM]
CO[C@H]1CC[C@@H]2CCN(C)C(=O)[C@@H](C)N(C)C(=O)c3cc(C#N)ccc3OC[C@@H]1O2	4[16.7 µM]
CCNC(=O)c1cc2c(c(-c3cccc(-c4cccc(F)c4)c3)n1)[C@@H](CCO)N([S@](=O)C(C)(C)C)C2	-3[16.7 µM]
C[C@@H]1CN([C@H](C)CO)C(=O)c2cc(NS(C)(=O)=O)ccc2O[C@@H](C)CCCCO[C@@H]1CN(C)C(=O)C1CCCCC1	8[16.7 µM]
N#Cc1ccc(OCC(=O)Nc2cc(S(=O)(=O)N3CCOCC3)ccc2N2CCCC2)cc1	21
COc1ccc(S(=O)(=O)Nc2cccc3c2O[C@@H](CN(C)S(=O)(=O)c2ccc(OC)cc2)[C@H](C)CN([C@@H](C)CO)C3=O)cc1	18[16.7 µM]
COC(=O)[C@]12C[C@H](CC(=O)NCCc3ccccc3OC)C(=O)N(Cc3ccccc3)C1=C[C@H](C(C)(C)C)O[C@@H]2C	20
COc1cccc(-c2cccc(-c3nc(C(=O)O)cc4c3[C@@H](CCO)N(S(=O)C(C)(C)C)C4)c2)c1 (stereo partly drawn)	-6[16.7 µM]
CC=Cc1ccc2n(c1=O)C[C@H]1[C@H](CO)[C@@H](C(=O)NCc3cccc(OC)c3)N[C@@H]21 (mixture of isomers)	4[16.7 µM]
CC(C)NC(=O)Nc1ccc2c(c1)C(=O)N([C@H](C)CO)C[C@H](C)[C@@H](CN(C)C(=O)NC(C)C)OCCCC[C@@H](C)O2	12[16.7 µM]
C[C@@H]1CN([C@@H](C)CO)S(=O)(=O)c2ccc(C#CC3CCCC3)cc2O[C@@H]1CN(C)C(=O)c1cccc(F)c1	26[16.7 µM]
Fc1ccc(-c2nc3c4ccccc4ccn3c2Cc2cccc(F)c2)cc1	-10

Two entries from above, field by field.
> CNC[C@H]1OCc2ccccc2-c2ccccc2C(=O)N([C@@H](C)CO)C[C@@H]1C
  HIV Env fusion = 18[16.7 µM]

> CO[C@H]1CC[C@@H]2CCN(C)C(=O)[C@@H](C)N(C)C(=O)c3cc(C#N)ccc3OC[C@@H]1O2
  HIV Env fusion = 4[16.7 µM]

The results go on.
SMILES	HIV Env fusion
C[C@H]1CN([C@@H](C)CO)C(=O)c2cc(NC(=O)CCCN(C)C)ccc2O[C@H]1CN(C)C(=O)Nc1ccc2c(c1)OCO2	10[16.7 µM]
C[C@H](O)C#Cc1cnc2c(c1)C(=O)N([C@@H](C)CO)C[C@H](C)[C@@H](CN(C)CC1CCOCC1)O2	4[16.7 µM]
Nc1[nH]c(C(=O)c2ccccc2)c(-c2ccc3ccccc3c2)c1C(=O)NCc1cccc2ccccc12	15
C[C@@H]1CN([C@H](C)CO)C(=O)c2cc(C#C[C@@H](C)O)cnc2O[C@H]1CN(C)C(=O)Cc1ccncc1	-4[16.7 µM]
C[C@H]1CNC(=O)c2c(C(=O)N(C)Cc3ccccc3)ncn21	18
COC(=O)C1=C(C)N(Cc2ccc(C(F)(F)F)cc2)C(=NCc2ccc(C(F)(F)F)cc2)NC1c1cccc(C(F)(F)F)c1 (stereo not drawn)	9
COC(=O)C[C@@H]1C[C@@H]2c3cc(NC(=O)C4CCOCC4)ccc3O[C@@H]2[C@@H](CO)O1	8[16.7 µM]
CCCCCCC12C(=Cc3cc4c(cc31)OCCO4)c1cc(OC)c(OC)cc1C(CC(=O)O)N2C(=O)OC (stereo not drawn)	-4
O=C(N[C@@H]1CC[C@@H](CCNC(=O)c2cnccn2)O[C@H]1CO)c1ccc2c(c1)OCO2	7[16.7 µM]
O=C(Nc1ccc2c(c1)[C@@H]1C[C@@H](CC(=O)N3CCCCC3)O[C@H](CO)[C@@H]1O2)C1CCOCC1	2[16.7 µM]
CO[C@@H]1CN(C)C(=O)c2ccc(NC(=O)C3CC3)cc2OC[C@H](C)N(C(=O)c2ccccn2)C[C@H]1C	-5[16.7 µM]
Cc1ccc2nc(-c3cccc(Cl)c3)c(Cc3cccc(Cl)c3)n2c1	18
Brc1ccc(COCCc2cn(Cc3ccccc3)c3ccccc23)cc1	19
O=C(C[C@@H]1CC[C@@H]2[C@H](COC[C@H](O)CN2C(=O)Nc2cccc(Cl)c2)O1)N1CCCCC1	-14[16.7 µM]
C[C@H]1CN([C@@H](C)CO)C(=O)c2c(c3ccccc3n2C)-c2ccccc2CO[C@@H]1CN(C)Cc1cccnc1	16[16.7 µM]
CC=Cc1ccc2n(c1=O)C[C@H]1[C@H](CO)[C@@H](C(=O)Nc3ccc(-c4ccccc4)cc3)[C@@H]2N1C(=O)CC (mixture of isomers)	11[16.7 µM]
CCCN1[C@H](C(=O)N[C@H](C)c2ccccc2)[C@@H](CO)[C@@H]2Cn3c(ccc(-c4cccc(F)c4)c3=O)[C@@H]21	-38[16.7 µM]
O=C(C[C@@H]1C[C@@H]2c3cc(NC(=O)c4ccc5c(c4)OCO5)ccc3O[C@@H]2[C@@H](CO)O1)NCc1cccnc1	40
O=C(c1cnccn1)N1CC(=O)N2[C@H](CO)[C@H](c3ccc(C#CC4CCCC4)cc3)[C@H]2C1	8[16.7 µM]
CO[C@H]1CN(C)C(=O)c2ccc(NS(=O)(=O)CC(F)(F)F)cc2OC[C@@H](C)NC[C@H]1C	28[16.7 µM]
CC(=O)N1CCN(c2ccc(N3CCN(Cc4ccccc4)[C@@H](C)C3)c(C)c2)[C@H](C)C1	7
COC(=O)c1cc2c(c3c4ccccc4n(S(=O)(=O)c4cccc(C)c4)c13)C(=O)N(Cc1ccccc1)C2	10
COc1ccc2c3c(n(C)c2c1)[C@@H](CO)N(Cc1ccccc1)CC31CN(C(=O)Nc2cccc(F)c2)C1	6[16.7 µM]
CCCN1C[C@@H](C)[C@H](OC)CN(C)C(=O)c2ccc(NC(=O)c3ccccc3F)cc2OC[C@@H]1C	11[16.7 µM]
CN1C(=O)c2cc(NC(=O)C3CCOCC3)ccc2OC[C@@H]2O[C@H](CC(=O)NCc3ccc4c(c3)OCO4)CC[C@H]21	10[16.7 µM]

Exported with values ahead of the structure: 6 of the compounds above
HIV Env fusion,structure
-5[16.7 µM],CO[C@@H]1CN(C)C(=O)c2ccc(NC(=O)C3CC3)cc2OC[C@H](C)N(C(=O)c2ccccn2)C[C@H]1C
8[16.7 µM],COC(=O)C[C@@H]1C[C@@H]2c3cc(NC(=O)C4CCOCC4)ccc3O[C@@H]2[C@@H](CO)O1
11[16.7 µM],CCCN1C[C@@H](C)[C@H](OC)CN(C)C(=O)c2ccc(NC(=O)c3ccccc3F)cc2OC[C@@H]1C
28[16.7 µM],CO[C@H]1CN(C)C(=O)c2ccc(NS(=O)(=O)CC(F)(F)F)cc2OC[C@@H](C)NC[C@H]1C
4[16.7 µM],C[C@H](O)C#Cc1cnc2c(c1)C(=O)N([C@@H](C)CO)C[C@H](C)[C@@H](CN(C)CC1CCOCC1)O2
9,COC(=O)C1=C(C)N(Cc2ccc(C(F)(F)F)cc2)C(=NCc2ccc(C(F)(F)F)cc2)NC1c1cccc(C(F)(F)F)c1 (stereo not drawn)

Entries above containing a CF3 group (2):
SMILES	HIV Env fusion
COC(=O)C1=C(C)N(Cc2ccc(C(F)(F)F)cc2)C(=NCc2ccc(C(F)(F)F)cc2)NC1c1cccc(C(F)(F)F)c1 (stereo not drawn)	9
CO[C@H]1CN(C)C(=O)c2ccc(NS(=O)(=O)CC(F)(F)F)cc2OC[C@@H](C)NC[C@H]1C	28[16.7 µM]

Continuation:
SMILES	HIV Env fusion
C[C@H]1CN([C@@H](C)CO)C(=O)Cc2cc(NS(=O)(=O)c3cn(C)cn3)ccc2O[C@@H]1CN(C)Cc1ccc(-c2ccccc2)cc1	0[16.7 µM]
O=C(C[C@H]1C[C@@H]2c3cc(NS(=O)(=O)c4ccccc4)ccc3O[C@@H]2[C@@H](CO)O1)NCC(F)(F)F	3[16.7 µM]
COC(=O)N[C@H]1CC=C[C@@H]1Cc1cccc(Oc2ccccc2)c1	11
Cc1noc(C)c1S(=O)(=O)N(C)C[C@@H]1Oc2c(NC(=O)C3CCOCC3)cccc2C(=O)N([C@H](C)CO)C[C@@H]1C	-10[16.7 µM]
COC(=O)C[C@@H]1C[C@H]2c3cc(NC(=O)Nc4ccccc4)ccc3O[C@H]2[C@H](CO)O1	-32[16.7 µM]
O=C(C[C@H]1C[C@@H]2c3cc(NC(=O)Nc4ccccc4F)ccc3O[C@@H]2[C@H](CO)O1)NCc1ccc2c(c1)OCO2	-14[16.7 µM]
CCc1noc2cc(-c3ccccc3)n(C)c(=O)c12	-15
C[C@@H]1CCCCO[C@@H](CN(C)CC2CC2)[C@@H](C)CN([C@H](C)CO)C(=O)c2cc(NS(=O)(=O)c3ccccc3)ccc2O1	-7[16.7 µM]
COc1cccc(CNC(=O)C[C@H]2CC[C@@H]3[C@@H](COc4ccc(NC(=O)c5cccs5)cc4C(=O)N3C)O2)c1	2[16.7 µM]
O=C(C[C@H]1CC[C@@H]2[C@H](COC[C@H](O)CN2Cc2cccc(F)c2)O1)NCc1ccncc1	-13[16.7 µM]
Cc1ccc(S(=O)(=O)N(C)C[C@H]2Oc3ccc(NC(=O)NC(C)C)cc3C(=O)N([C@@H](C)CO)C[C@@H]2C)cc1	-3[16.7 µM]
CN(C)c1ccc2c(c1)[C@@H]1C[C@H](CC(=O)NCc3ccc(Oc4ccccc4)cc3)O[C@@H](CO)[C@@H]1O2	-38[16.7 µM]
CO[C@@H]1CN(C)C(=O)c2ccc(NC(=O)c3ccccn3)cc2OC[C@@H](C)N(CCC(F)(F)F)C[C@H]1C	6[16.7 µM]
O=C(Cc1ccccn1)N[C@@H]1CC[C@H](CCn2cc(-c3ccccc3)nn2)O[C@@H]1CO	12[16.7 µM]
O=C(C[C@@H]1CC[C@@H]2[C@H](COC[C@@H](O)CN2C(=O)c2ccc3c(c2)OCO3)O1)NC1CCCC1	2[16.7 µM]
CC(C)[C@H](NC(=O)[C@H](C)NC(=O)OC(C)(C)C)C(=O)N1CCC2CCN(Cc3ccccc3)CC21 (stereo partly drawn)	11
Cc1noc(C)c1NC(=O)Nc1ccc2c(c1)C(=O)N(C)[C@H]1CC[C@H](CC(=O)N[C@H]3CCN(Cc4ccccc4)C3)O[C@@H]1CO2	-1[16.7 µM]
O=C(NC[C@@H]1CC[C@H]2[C@H](CN2Cc2ccccc2C(=O)O)O1)c1ccc(F)cc1	-25[16.7 µM]
C[C@H]1CN([C@@H](C)CO)C(=O)Cc2cc(NC(=O)CCN3CCOCC3)ccc2O[C@@H]1CN(C)Cc1ccncc1	-24[16.7 µM]
CCC(=O)N1CCC2(CC1)CN(C(C)=O)[C@H](CO)c1[nH]c3cc(OC)ccc3c12	-13[16.7 µM]
COc1ccc(NC(=O)Nc2ccc3c(c2)C(=O)N([C@@H](C)CO)C[C@H](C)[C@H](CN(C)C(=O)Nc2ccc(OC)cc2)OCCCC[C@@H](C)O3)cc1	-9[16.7 µM]
COCC(=O)N1C[C@H](C)[C@H](OC)CN(C)C(=O)c2cc(NC(=O)Nc3cccc(F)c3)ccc2OC[C@H]1C	2[16.7 µM]
Cc1cc(-c2cc(NC(=O)Cc3c(C)[nH]c4ccccc34)ccc2N(C)c2cccnc2)ccc1F	-34
Cc1cc(N2CCN(C(=O)OC(C)(C)C)C[C@@H]2C)ccc1N1CCN(Cc2ccccc2)[C@@H](C)C1	25
C[C@H]1CN([C@@H](C)CO)C(=O)c2cc(-c3ccc(C(=O)N(C)C)cc3)cnc2O[C@H]1CN(C)C(=O)c1ccncc1	-13[16.7 µM]
CC(C)NC(=O)Nc1ccc2c(c1)C(=O)N([C@H](C)CO)C[C@H](C)[C@H](CN(C)Cc1ccncc1)OCCCC[C@H](C)O2	4[16.7 µM]
CO[C@H]1CC[C@@H]2CCOc3c(C#N)cccc3C(=O)N(C)[C@H](C)C(=O)N(C)C[C@H]1O2	-15[16.7 µM]
COc1cccc(S(=O)(=O)N(C)C[C@H]2OCc3ccccc3-c3ccccc3C(=O)N([C@@H](C)CO)C[C@H]2C)c1	-14[16.7 µM]
O=S(=O)(c1ccc(Cl)cc1)N1CCN(Cc2cccc(OCCO)c2)CC1	-11[16.7 µM]
